# Screening data deposited in PubChem by Fisher Drug Discovery Resource Center.
# NPYLR7 ag: agonists of mosquito NPYLR7 receptor, primary screen, cell-based, Aedes aegypti, calcium fluorescence, mosquito biting behavior | Aedes aegypti neuropeptide Y-like receptor 7 (NPYLR7) | HEK293T NPYLR7/Galpha15, GCaMP6s calcium fluorescence | activation, % at 10 µM | actives 0.15% (n = 270,000) | AID 1259423, 2018; in the data active = activation above about 40%;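 note: 0% = vehicle and 100% = reference agonist at the receptor; some compounds past the cut are filed as inactive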
# NPYLR7 ag max-min: also measured in NPYLR7 ag; calls as there; activation, %; measured here: Max-Min RFU normalised activation; some inactives read as strong as hits;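 span of the calcium signal over five minutes; 0% = vehicle and 100% = native peptide agonist; compound fluorescence can raise it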
# * marks the source's active call; other numbers are inactive results; & = joins results of further samples. A portion of the library. The share of hits here may be higher or lower than overall.
# The first 7 compounds (preview)
# Results follow in this order: NPYLR7 ag, NPYLR7 ag max-min
Cc1nc(CNC(=O)C2CCCN(C3CCCCC3)C2)n[nH]1 (centres undefined)
→ -6, -7
CCN(Cc1nccn1Cc1cccc(F)c1)C(=O)c1cccc(F)c1
→ 8, 14
CCOC(=O)c1nnn(-c2nonc2N)c1C
→ -1, -3
COc1ccc(-n2ccnc(SCc3cccc(C)c3)c2=O)cc1OC
→ 2, 4
c1ccc(-c2csc3[n+]2CCS3)cc1
→ 4, 2
OC(Cc1ccccc1)CN(Cc1cccc(Cl)c1)CC1CC(c2ccccc2Cl)=NO1 (centres undefined)
→ 18, 22
CC1CCC2(CC1)OCC(C(=O)NCc1ccccn1)N2C(=O)c1cc(F)cc(F)c1 (centres undefined)
→ 5, 18

# This part in full (from the top)
# Results follow in this order: NPYLR7 ag, NPYLR7 ag max-min
Cc1nc(CNC(=O)C2CCCN(C3CCCCC3)C2)n[nH]1 (centres undefined)
→ -6, -7
CCN(Cc1nccn1Cc1cccc(F)c1)C(=O)c1cccc(F)c1
→ 8, 14
CCOC(=O)c1nnn(-c2nonc2N)c1C
→ -1, -3
COc1ccc(-n2ccnc(SCc3cccc(C)c3)c2=O)cc1OC
→ 2, 4
c1ccc(-c2csc3[n+]2CCS3)cc1
→ 4, 2
OC(Cc1ccccc1)CN(Cc1cccc(Cl)c1)CC1CC(c2ccccc2Cl)=NO1 (centres undefined)
→ 18, 22
CC1CCC2(CC1)OCC(C(=O)NCc1ccccn1)N2C(=O)c1cc(F)cc(F)c1 (centres undefined)
→ 5, 18
O=C(COc1ccc(Cl)c2ccccc12)NCC(F)(F)F
→ 9, 6
CC(=O)c1c(N2CCOCC2)[nH]c(-c2ccccc2)nc1=S
→ -4, -7
O=c1c2[nH]c3ccccc3c2ncn1Cc1ccc(F)cc1
→ 2, 2
CCc1cnc2c(c1OC)c(=O)n(CC(=O)N1CCCC1)c(=O)n2C
→ 3, 0
O=C(c1csc(-c2cccs2)n1)N1CCCn2cncc2C1
→ -6, -7
CC(C)OCC(O)CN(Cc1ccc(F)cc1)CC1CCCO1 (centres undefined)
→ 15, 13
COCCCn1cc(C(=O)Nc2nccs2)c2nn(-c3ccccc3)c(=O)c-2c1
→ 4, 3
CC(=O)Nc1ccc(Nc2c3c(nc4c(-c5ccccc5)c(C)nn24)CCC3)cc1
→ 4, 5
Cc1nc(SCc2ccc3c(c2)OCO3)c2c3c(sc2n1)CCCC3
→ -1, -5
Cc1ccccc1NC(=O)C(C)N1CCN(Cc2ccco2)CC1 (centres undefined)
→ 2, 1
O=C(Cn1nc(-c2ccccc2)c2sc(N3CCCC3)nc2c1=O)NC1CCCCC1
→ -3, -10
CCC(=O)Nc1ncc(Cc2ccc(C)cc2)s1
→ 7, 6
Cc1ncc(-c2ccc(NC(=O)c3ccc(N4CCCC4)nc3)cc2)o1
→ 8, 2
Cc1cc(N2CCCCC2)n2ncc(-c3ccccc3)c2n1
→ -2, -6
CCCC(=O)N1CCN(c2cc(Cl)nc(SCC(=O)NCCc3ccc(Cl)cc3Cl)n2)CC1C (centres undefined)
→ 18, 30
CCCCN(CC(=O)N(Cc1cccn1C)CC(C)C)C(=O)c1cc(C(F)(F)F)cc(C(F)(F)F)c1
→ 6, 13
Cc1cc(C)n(-c2cccc(-c3ccccc3C(N)=O)c2)n1
→ 4, -3
Cc1nn(S(=O)(=O)c2ccc(C(C)(C)C)cc2)c(C)c1S(=O)(=O)N1CCC(C)CC1
→ 7, 1
COc1ccc(NC(=O)N2CCC(Cc3ccc(-c4ccccc4)cc3)CC2)cc1
→ 2, 14
CC(C)OC(=O)n1c(=S)oc2ccccc21
→ -3, -3
Cc1cc(C)nc(SCC(C)Cn2c(Br)nc3c2c(=O)[nH]c(=O)n3C)n1 (centres undefined)
→ 6, 1
Cc1ccc(-c2n[nH]c(=O)c3nc(C)sc23)cc1
→ -6, -5
COCCN=c1scc(-c2ccc(Br)cc2)n1N=Cc1ccc(SC)cc1
→ -5, -13
COc1ccccc1CN1CC(O)CN(S(=O)(=O)Cc2ccccc2)CC1=O (centres undefined)
→ -2, 4
C[C@@H]1CC2C3CCC4=CC(=O)C=C[C@]4(C)[C@@]3(F)[C@@H](O)C[C@]2(C)[C@@]1(O)C(=O)CO (some centres undefined)
→ -7, -13
CC(=O)NCc1ccc(-c2nc(CC(C)C)no2)cc1
→ 1, 0
O=S1(=O)CC(NC(=S)Nc2ccccc2)C(NC(=S)Nc2ccccc2)C1 (centres undefined)
→ -12, -18
CCOC(=O)c1cc(C2CC2)n(-c2ccc(C(=O)NCc3ccccc3F)cc2)n1
→ -5, -16
COC(=O)CN(C)Cc1cccc(C(=O)Nc2cccc(F)c2F)c1
→ 6, 2
Cc1cccc2[nH]c(C3CCN(c4ccnc(C(=O)NC(C)C)c4)CC3)nc12
→ 3, 3
CCOC(=O)C/C(C)=N\Nc1nc2c(c(=O)n(C)c(=O)n2C)n1CC=Cc1ccccc1
→ -6, -7
Cc1nnc(NC(=O)Cc2ccccc2)s1
→ -7&-14, -11&-22
Cc1nc(CN2CCC3(CCCO3)CCC2=O)co1 (centres undefined)
→ 9, 3
O=C(c1cccc(N2CCCC2=O)c1)N1C[C@@H]2C3CCC(CC3)[C@@H]2C1
→ 3, -1
COc1cccc(-c2nnc(SCc3nc(C(=O)N4CCN(C/C=C/c5ccccc5)CC4)cs3)n2-c2ccccc2)c1
→ 26, 26
Cc1cc(C)c(Cn2cncn2)cc1CN1CCC(N)(C(=O)O)C1 (centres undefined)
→ 1, 0
NC(=O)c1nc(-c2ccco2)nc2c1[nH]c(=O)n2-c1ccccc1F
→ -7, -10
O=C(Nc1ccc(SCC(=O)N2CCN(c3ccccc3)CC2)nn1)C1CC1
→ -3, -4
CC(C)(C)N(Cc1ccccc1)C(=O)Nc1ccc(F)cc1F
→ -10, -8
CCOc1ccc(CN2CCCC(CNC(=O)c3ccc(F)cc3)C2)cc1CO (centres undefined)
→ 3, 5
CCC(C)NC(=O)C1CCN(c2cc(Br)ccc2C)C1=O (centres undefined)
→ 3, 3
O=C(C1CCCN1S(=O)(=O)c1cccs1)N1CCN(c2nc3c(Cl)cccc3s2)CC1 (centres undefined)
→ 1, 2
CCOC(=O)c1cc(-c2ccc(N3CCN(C(=O)CCC(=O)OC)CC3)cc2)n(-c2ccccc2OC)n1
→ 3, 0
CC(C)Cc1cc(C(=O)NCc2csc(-c3cnccn3)n2)n(C)n1
→ 8, 8
OCCC1CN(Cc2ccc3c(c2)OCCO3)CCN1CC1CCCCC1 (centres undefined)
→ -7, -10
CN(NC(=O)c1ccc(-n2nc(-c3cccc(C(F)(F)F)c3)cc2N)cc1)c1ccccc1
→ -5, -8
O=C(NC1CCOCC1)[C@@]12CNC[C@@H]1CN(C1CCCC1)C2
→ 1, -6
CC(NC(=O)c1ccc(C(C)(C)C)cc1)c1nc2cc(Cl)ccc2c(=O)n1C (centres undefined)
→ 25, 30
COc1cccc2cc(C(=O)NC(C)=O)c(=Nc3ccccc3C)oc12
→ 6, 1
COc1ccc(C)cc1NC1CCCN(S(=O)(=O)c2ccc(Cl)cc2)C1 (centres undefined)
→ 4, 14
Cc1nc(C(C)C)sc1C(=O)NCCc1nc(-c2cccnc2)n[nH]1
→ 18, 16
Cc1ccc(-c2ccc(OCCNC(=O)CC3CCCC3)nn2)cc1
→ -3, -3
Cc1cc(-c2ccc(C(C)N3CCCCC3)cc2)cnc1-n1cnnc1 (centres undefined)
→ 2, -1

# Some of the entries so far, field by field:
COC(=O)CN(C)Cc1cccc(C(=O)Nc2cccc(F)c2F)c1
  NPYLR7 ag: 6 | NPYLR7 ag max-min: 2

Cc1cccc2[nH]c(C3CCN(c4ccnc(C(=O)NC(C)C)c4)CC3)nc12
  NPYLR7 ag: 3 | NPYLR7 ag max-min: 3

CCOC(=O)C/C(C)=N\Nc1nc2c(c(=O)n(C)c(=O)n2C)n1CC=Cc1ccccc1
  NPYLR7 ag: -6 | NPYLR7 ag max-min: -7

# (continued)
# Results follow in this order: NPYLR7 ag, NPYLR7 ag max-min
CN1CCC(C)(C(=O)Nc2ccccc2-c2ccccc2)C1 (centres undefined)
→ 4, 5
Cn1c(Sc2ccc(Cl)cc2)nc(Cl)c1C=O
→ 0, -5
CCOC(=O)c1cnn(CN2CC(C)OC(C)(C)C2)c1C(F)F (centres undefined)
→ 3, -1
O=S(=O)(CCCOc1ccc2c(c1)OCO2)N1CCCC1
→ 8, 10
CCCC(=O)N(CCCN1CCOCC1)c1nc2c(C)ccc(Cl)c2s1
→ -5, -9
C[C@H](NC(=O)C12CC3CC(CC(C3)C1)C2)C(=O)O
→ -4, -5
CS(=O)(=O)c1c(F)cc(NC(=O)C(=O)NCC2CC2)cc1F
→ 6, 1
CC(C)(C)c1cc(N2CCCC2)nc(SCc2cccc(C(=O)NCC3CCCO3)c2)n1 (centres undefined)
→ -2, 9
OCCNc1ncnc2c1c(-c1ccccc1)cn2-c1cccc(C(F)(F)F)c1
→ 3, 3
O=S(=O)(N1CCOCC1)N1CCOC(CCCc2ccccc2)C1 (centres undefined)
→ 15, 10
O=C(c1cccc(OC(F)F)c1)N1CCOC(COCc2c(Cl)cccc2Cl)C1 (centres undefined)
→ 13, 23
Clc1ccc(-c2csc(NCC3CCCO3)n2)c(Cl)c1 (centres undefined)
→ -1, -2
COc1cc(C(=O)N2C3CCC4(CC3)OC(=O)N(C)CC24)cc(OC)c1OC (centres undefined)
→ 17, 21
O=C(COc1ccccc1)N1C[C@@H]2C[C@H](C1)c1c(-c3cc4ccccc4s3)ccc(=O)n1C2
→ -7, -12
CN(C)C=Nc1ccc(OC(F)F)c(Cl)c1
→ -3, -4
CC(=NOCC(=O)O)c1ccc(Br)s1
→ 7, 4
Cc1cc2nc(-c3ccccc3)c(=O)n(C)c2cc1C
→ -8, -8
C=C1c2ccccc2C(=O)N1CC(=O)OC(C)C(=O)NC(=O)NCC (centres undefined)
→ -4, 0
Cc1cc(C(=O)N2CCc3onc(-c4ccccc4)c3C2)nc(C)n1
→ 13, 4
CC(C)C1=C(CNC(=O)Cn2c(=O)n(C)c3ccccc32)CCCO1
→ 5, 4
Cc1ccc(C2=NOC(CN(Cc3ccccc3Cl)C(=O)c3ccccc3F)C2)cc1 (centres undefined)
→ 13, 3
COCCNC(=O)N(C)CC1CCC(C)CC1 (centres undefined)
→ -2, -5
CCOc1ccccc1CN1CCN(Cc2cccc(C(C)=O)c2)CC1CCO (centres undefined)
→ 1, 0
Cc1nn(CC(=O)NCCC(C)C)c(C)c1S(=O)(=O)N(C)C
→ 0, 8
CCCCOc1cccc(-c2nnc(CCC(=O)N3CCN(C(=O)OCC)CC3)c(=O)[nH]2)c1
→ 7, 4
Cn1cccc1-c1cc(C(=O)NC(Cc2ccccc2)c2ccccc2)n(-c2ccccc2)n1 (centres undefined)
→ -3, 0
Cc1ccsc1-c1nccn1CC(c1ccccn1)N1CCOCC1 (centres undefined)
→ 0, 0
Cn1cnnc1Sc1ccc(CN2CCC3(CCCNC3)C2)o1 (centres undefined)
→ 4, 3
CCOc1ccc(NC(=O)COc2ccc3c(C)cc(=O)oc3c2)cc1
→ 16, 8
COCCN1C(=O)N(Cc2cccc3ccccc23)C(=O)C12CCN(Cc1ccccn1)CC2
→ 7, -1
CC(=O)N1N=C(Cc2ccccc2)OC1C(=O)O (centres undefined)
→ 9, 3
NC(=O)c1nc(-c2cccnc2)nc2c1[nH]c(=O)n2-c1ccccc1F
→ 19, 3
O=C(CSCCO)Nc1nccs1
→ 4, 10
O=C(CC1CC2CCC1C2)NCc1ccc(C(=O)N2CCNC(=O)C2)cc1 (centres undefined)
→ -2, -3
CN1CC2(CCCN(C(=O)CCn3cnnc3)CC2)OC1=O (centres undefined)
→ -1, 21
CC1CN(C(C)c2ccc(F)cc2)CCO1 (centres undefined)
→ 0, -1
NC(=O)C1CCCN1C(=O)NC(=O)CSc1ccccc1Cl (centres undefined)
→ -6, -8
S=c1[nH]c2ccccc2n1Cc1ccccc1
→ 4&-10, 3&-15
COc1ccc(SC(C)C(=O)NC2CCC(=O)NC2c2ccccc2)cc1 (centres undefined)
→ 4, 2
CCOC(=O)C1CCCN(C(=O)c2ccc(CSc3nc(N4CCCC4)cc(C(F)(F)F)n3)cc2)C1 (centres undefined)
→ 19, 12
COc1ccc(CCc2nnc(CCC(=O)N(C)Cc3ccnc4ccccc34)o2)cc1
→ 1, -3
CCOc1ccc(NC(=O)CSc2ccc3nnc(-c4cccnc4)n3n2)cc1
→ -2, -3
O=C(COCc1ccccc1)N1CCOC(COCc2ccccc2F)C1 (centres undefined)
→ -1, -5
COc1cc(NC(=O)Cn2nc(C(F)(F)F)c(Br)c2C)c(OC)cc1Cl
→ 0, -5
Cc1cn2c3c(=O)n(CC(C)C)c(=O)n(C)c3nc2n1-c1ccc(S(N)(=O)=O)cc1
→ 9, 12
Cc1cc(N(C)C)ccc1NC(=O)Cc1noc2ccccc12
→ -1, -4
Cc1oc(-c2cc3c(cc2Cl)OCO3)nc1CN1CCCCC1c1ccccn1 (centres undefined)
→ 15, 1
CCOc1ccccc1C(=O)NCc1cccc(-c2ncc(-c3ccc(F)cc3)[nH]2)c1
→ -3, -7
CCc1nc2ccc(C(=O)Nc3ccc4c(c3)OCC(=O)N4)cn2c1N(C)Cc1nccn1C
→ -4, -7
O=C(c1n[nH]c2ccccc12)N1CCN(CC2CCCO2)CC1 (centres undefined)
→ 4, 2
O=C(CSc1nnc(C2(c3ccc(Cl)cc3)CCC2)o1)Nc1nc(-c2ccccc2)cs1
→ -5, -9
O=C(NCC1(O)CCNC1)c1cnc(Nc2ccccc2)nc1 (centres undefined)
→ 9, 5
CC(Oc1ccccc1-c1cccc2cnccc12)C(N)=O (centres undefined)
→ -1, 0
Cc1ccc2c(c1)CN(CCC(=O)NC1CCN(Cc3ccccc3)CC1)CC(C)O2 (centres undefined)
→ 6, 5

# Two consecutive entries from above:
# Results follow in this order: NPYLR7 ag, NPYLR7 ag max-min
Cc1oc(-c2cc3c(cc2Cl)OCO3)nc1CN1CCCCC1c1ccccn1 (centres undefined)
→ 15, 1
CCOc1ccccc1C(=O)NCc1cccc(-c2ncc(-c3ccc(F)cc3)[nH]2)c1
→ -3, -7
